MbtI inh = inhibitors of Mycobacterium tuberculosis siderophore enzyme MbtI | AID 493033 | actives 0.89% (n = 100,000) | purified MbtI enzyme, fluorescence intensity read-out | P9WFX0 | inhibition, %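 (about 17 µg/mL by stock and volumes)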;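 active means above 50% in both replicates, above 80% if mildly self-fluorescent; inactive means the rest, strongly fluorescent compounds included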;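 further: 0% = mean of negative and 100% = mean of positive controls; one replicate is shown; some compounds called inactive have numbers as strong as hits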
Target sequence (P9WFX0 whole entry, looked up): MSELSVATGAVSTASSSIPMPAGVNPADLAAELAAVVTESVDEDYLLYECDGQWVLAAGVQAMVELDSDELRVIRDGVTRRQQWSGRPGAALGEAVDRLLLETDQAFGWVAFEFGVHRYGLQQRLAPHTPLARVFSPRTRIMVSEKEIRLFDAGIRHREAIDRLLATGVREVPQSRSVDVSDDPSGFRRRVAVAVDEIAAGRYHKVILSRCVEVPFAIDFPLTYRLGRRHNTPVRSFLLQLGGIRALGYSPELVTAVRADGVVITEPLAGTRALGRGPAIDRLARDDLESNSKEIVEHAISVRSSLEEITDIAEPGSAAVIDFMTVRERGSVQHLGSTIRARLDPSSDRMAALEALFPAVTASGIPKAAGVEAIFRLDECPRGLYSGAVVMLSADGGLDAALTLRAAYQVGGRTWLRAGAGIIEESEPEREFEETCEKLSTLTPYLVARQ
Mtb MenB inh = inhibitors of Mycobacterium tuberculosis MenB enzyme; MenB enzyme assay, absorbance read-out; some hits fall short of the stated cut; P9WNP5; AID 540299; inhibition, %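 (about 12 µg/mL by stock and volumes)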; actives 0.43% (n = 100,000);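 active means mean of two replicates above 30%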;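 further: 0% = no compound and 100% = wells with inactive enzyme; the first replicate is given; strong numbers were not always called active; inactives centre near -10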
Polio RdRp inh = poliovirus RNA polymerase inhibition; AID 588519; % elongation, % (compound at 16.7 µg/mL); P03300; poliovirus polymerase elongation, fluorescence polarization; stronger effect = lower value; actives 0.66% (n = 150,000); in the data active means % elongation below about 90%; further: some results filed as inactive read as strong as hits
Target sequence (P03300 1749-2209 limits assumed): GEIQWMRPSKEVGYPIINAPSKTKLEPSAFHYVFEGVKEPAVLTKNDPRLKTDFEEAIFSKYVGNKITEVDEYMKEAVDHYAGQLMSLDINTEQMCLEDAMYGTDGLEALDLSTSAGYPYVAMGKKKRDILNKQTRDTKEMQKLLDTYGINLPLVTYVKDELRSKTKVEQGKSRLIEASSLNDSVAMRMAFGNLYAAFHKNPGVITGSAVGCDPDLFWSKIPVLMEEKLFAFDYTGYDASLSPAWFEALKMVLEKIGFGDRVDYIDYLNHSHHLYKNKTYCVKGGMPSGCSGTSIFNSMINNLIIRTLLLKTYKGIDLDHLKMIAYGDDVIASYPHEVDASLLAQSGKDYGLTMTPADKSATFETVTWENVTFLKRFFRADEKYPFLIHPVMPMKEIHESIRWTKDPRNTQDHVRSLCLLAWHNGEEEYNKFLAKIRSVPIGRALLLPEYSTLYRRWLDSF
Polio RdRp inh intensity = second read-out of Polio RdRp inh, no call of its own (marks repeat the call); % elongation; measured here: total intensity read-out; formula for this scale not given here;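 total fluorescence in place of polarization; lower means less elongation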
* hit, by the source's call; x = no result given.

mol,Polio RdRp inh,Polio RdRp inh intensity,Mtb MenB inh,MbtI inh
COc1ccc(NC(=O)N(Cc2c[nH]c3ccccc23)C(C)C)c(OC)c1,99,101,-9,-1
CN(C)C(=O)NCc1cccnc1,103,102,-6,-3
N#C/C(=C/Nc1ccc(I)cc1)c1nc2ccccc2o1,101,104,-10,-1
O=C(Nc1ccc(N2CCCCC2)cc1)c1ccc2c(c1)OCO2,102,102,14,-8
O=C1CN(CC(=O)Nc2ccc3c(c2)OC(F)(F)O3)CCN1,101,107,-26,-4
S=C(Nc1cccc(Cl)c1)N1CCc2ccccc2C1,110,112,-7,-8
Cc1cccc(NC(C)C(=O)N/N=C/c2ccc(O)cc2)c1 (configuration not stated),100,101,6,9
O=C1CCCN1c1nc2ccccc2s1,101,90,-36,4
Cc1cc(C)c2cc(C(=O)N3CCN(c4ncccc4C(F)(F)F)CC3)[nH]c2c1,106,106,-5,8
CCc1ccc(S(=O)(=O)N(C)C2CCS(=O)(=O)C2)cc1 (configuration not stated),x,x,-11,-14
Cc1cc(C)n(C(=O)Nc2ccc(Cl)cc2)n1,101,106,-16,-8
CC(N)c1ccc(-n2ccnc2)cc1 (configuration not stated),x,x,-8,-16
NCc1n[nH]c(=S)n1-c1cccc(C(F)(F)F)c1,99,102,-31,16
Cc1cc(C(=O)CN2C(=O)CCC2=O)c(C)n1Cc1ccccc1,104,110,-28,-11
Cc1nc(NC2CCN(Cc3nnnn3Cc3ccc4c(c3)OCO4)CC2)[nH]c(=O)c1C,101,99,-16,-12
NNC(=O)CN1C(=O)COc2ccccc21,105,111,12,-11
COc1ccc(C2C3CCc4ccccc4C3=NN2CCOC(=O)C2CC2)cc1 (configuration not stated),103,116,9,5
Cc1ccc(CSc2ncnc3sc4c(c23)CCC4)cc1,103,98,6,6
CCCc1[nH]n(-c2nc3ccccc3s2)c(=O)c1C=NCC1CCCO1 (configuration not stated),98,101,-10,27
CC1=NN(C(N)=S)C(=O)C1C(c1ccccc1)C(C#N)C#N (configuration not stated),147,166,-33,x
O=C(O)C1CCS(=O)(=O)C1 (configuration not stated),104,101,-22,-4
CCC(SC1=NCCS1)C(=O)Nc1nnc(-c2ccccc2OC)s1 (configuration not stated),100,101,-29,7
CCOc1cccc(=O)c2c(C)n(Cc3ccco3)c(C)c12,121,159,-22,15
C=CCNC(=S)N1CCc2c([nH]c3ccccc23)C1C(F)(F)F (configuration not stated),100,99,-26,-6
Cc1cc(NC(=O)C(F)(F)F)n(-c2ccccc2)n1,105,106,4,x
O=C(CNCc1ccco1)Nc1cccc(OC(F)(F)F)c1,101,102,-29,-3
Cc1ccc2ncc(C(=O)N3CCN(c4ccccc4)CC3)c(=O)n2c1,100,103,-6,-6
CCn1c2ccccc2c2cc(NC3=NC(C)(C)CS3)ccc21,106,104,-30,-48
N#C/C(=C\c1cn(CC(=O)NCC2CCCO2)c2ccccc12)C(=O)N1CCCC1 (configuration not stated),102,101,-63,14
Cc1cc(C)nc(N(C#N)Cc2ccccc2)n1,99,103,0,5

Single records, from the list above:
Listed for `N#C/C(=C/Nc1ccc(I)cc1)c1nc2ccccc2o1` = Polio RdRp inh: 101; Polio RdRp inh intensity: 104; Mtb MenB inh: -10; MbtI inh: -1
Listed for `NNC(=O)CN1C(=O)COc2ccccc21` = Polio RdRp inh: 105; Polio RdRp inh intensity: 111; Mtb MenB inh: 12; MbtI inh: -11

Back to the main list; the four compounds before the break are reprinted first.
mol,Polio RdRp inh,Polio RdRp inh intensity,Mtb MenB inh,MbtI inh
Cc1ccc2ncc(C(=O)N3CCN(c4ccccc4)CC3)c(=O)n2c1,100,103,-6,-6
CCn1c2ccccc2c2cc(NC3=NC(C)(C)CS3)ccc21,106,104,-30,-48
N#C/C(=C\c1cn(CC(=O)NCC2CCCO2)c2ccccc12)C(=O)N1CCCC1 (configuration not stated),102,101,-63,14
Cc1cc(C)nc(N(C#N)Cc2ccccc2)n1,99,103,0,5
Cc1ccc(-c2csc(-c3nnn(-c4ccc(C)c(C)c4)c3N)n2)cc1,27*,19*,8,19
CCCN1C(=O)C[n+]2ccccc2C1C(=O)Nc1ccccc1C (configuration not stated),101,106,-1,-4
N#Cc1ccc(Cl)cc1NC(=O)CSc1nnc(-c2ccc(OC(F)F)cc2)n1N,104,111,-18,-5
CC(=O)N=Nc1c2[nH]c3ccccc3nc-2c2ccccc12,102,101,-87,-11
Cc1cc(C)c(C(=O)CN2C(=O)NC(CC(C)C)C2=O)cc1C (configuration not stated),102,103,-21,-7
O=S(=O)(/C=C/c1ccccc1)N1CCN(Cc2coc(-c3cccs3)n2)CC1,105,113,-24,-5
NC(=O)N/N=C/c1ccc(N2CCOCC2)cc1,98,92,-3,99
Cc1ccc(S(=O)(=O)N2CCCN(C)CC2)cc1,101,97,x,-9
COP1(=S)C2=C(N3CCCC3)CCCC2=NN1c1ccccc1 (configuration not stated),99,109,-25,15
CCN(C(=O)c1ccc2c(c1)OCO2)C12CC3CC(CC(C3)C1)C2,97,110,8,2
CN(C)/N=C/c1ccc(OC(=O)c2ccc(Br)cc2)cc1,100,104,-12,x
Cc1nc2nc(CC(=O)N3CCC(C)CC3)nn2c(C)c1Cl,100,102,34,2
O=C1CC(Cc2ccccc2)C(=O)N1c1ccc(Cl)cc1 (configuration not stated),99,102,-18,-14
COc1ccc2c(c1)SC1=NC(=O)C(Cc3ccccc3)C(=O)N12 (configuration not stated),101,103,-4,4
c1ccc(COc2ccc(Oc3ncnc4c3oc3ccccc34)cc2)cc1,108,107,-17,-9
Cc1ccc(S(=O)(=O)N2CCC(C(=O)OC(C)C(=O)NCc3ccc4c(c3)OCO4)CC2)cc1 (configuration not stated),107,107,-43,-6
O=C(NN1CC(=O)N(C(c2ccccc2)c2ccccc2)C1=O)c1ccncc1,102,107,5,-7
CC(C)(C)c1cc(NC(=O)Nc2ccc(Cl)cc2Cl)no1,101,101,14,-4
COC(=O)c1sc2ccccc2c1NC(=O)c1ccc(S(=O)(=O)N(C)c2ccccc2)cc1,103,101,-47,-18
Cc1ccc(C(=O)N/C(=C\c2ccco2)C(=O)N2CCCC2)cc1,111,114,-15,x
O=C(c1cc(F)cc2c1OCOC2)N1CCN(C2c3ccccc3-c3ccccc32)CC1,101,104,-5,-12
CCCCC1CCC(C(=O)N(Cc2sccc2C)C2CCS(=O)(=O)C2)CC1 (configuration not stated),106,107,-26,3
CC1(C)Cc2c(sc(NC(=O)C(c3ccccc3)c3ccccc3)c2C#N)CO1,100,104,6,27
CCC(Sc1nc2cc3c(cc2c(=O)n1Cc1ccco1)OCO3)C(=O)NCc1ccc(C)cc1 (configuration not stated),103,97,-17,-10
O=C(CC(c1ccc(Cl)cc1)S(=O)(=O)c1ccccc1)c1ccco1 (configuration not stated),102,101,13,3
COc1cccc(OC)c1C(=O)N[C@@H]1C(=O)N2[C@@H]1SC(C)(C)[C@@H]2C(=O)O,100,103,7,-20
O=C(CCS(=O)(=O)c1ccccc1)OCc1csc(-c2ccccc2)n1,101,105,-123,-3
CC(C)CNC(=O)C1C2C=CC(C2)C1C(=O)O (configuration not stated),102,100,4,-8
O=C(c1cccnc1)N1C(=O)c2cccc3c(S(=O)(=O)N4CCCCC4)ccc1c23,x,x,-6,-5
CN(c1ccnc(C(=O)N2CCOCC2)c1)S(=O)(=O)c1ccccc1,100,101,-2,-10
O=C(NC1CCCCC1)c1nnc(Cc2cccc(F)c2)o1,102,102,-15,11
O=C1CCCCCN1Cc1nnc(SCc2cnc(-c3ccccc3)s2)n1-c1ccccn1,107,110,-11,-12
CCN(CC)CCN(C)Cc1c(F)cccc1F,100,105,-12,-7
O=C(O)CCC(=O)Nc1ccc(-c2cn3ccccc3n2)cc1,108,101,4,x
CC1CCCCN1C(=O)CSc1nc2ccccc2c(=O)[nH]1 (configuration not stated),98,103,10,10
O=C1c2ccccc2NC2(C(=O)N(Cc3ccccc3)c3ccccc32)N1C1CC1 (configuration not stated),100,97,8,-38
ONC(=Nc1ccccc1)c1cccnc1,104,105,25,6
CCOC(=O)c1cccc(NC(=O)Cn2ncc3c(C)n(Cc4ccc(F)cc4)c(C)c3c2=O)c1,104,105,-26,6
O=S(=O)(Nc1n[nH]c(C(F)(F)F)n1)c1ccccc1,101,102,0,6
O=C(c1cc2ccc3cccnc3c2[nH]1)N1CCN(c2ccc(F)cc2)CC1,106,100,-34,13
CCOc1ccc(-c2cccc(NC(=O)Cc3ccc(OC)c(OC)c3)c2)nn1,107,109,-8,1
CCc1cc2c(cc(C(=O)OC)n2Cc2cccc(OC)c2)s1,102,99,-5,6
S=c1nccc(-c2ccc(-c3cccs3)s2)[nH]1,105,105,-79,-52
C=CCNC(=O)c1ccccc1NC(=O)c1ccccc1NS(C)(=O)=O,102,105,-8,-17
COc1cc([C@@H]2c3cc4c(cc3C(O[C@@H]3O[C@@H]5CO[C@@H](c6cccs6)OC5[C@H](O)[C@H]3O)C3COC(=O)[C@@H]32)OCO4)cc(OC)c1O (some centres not stated),100,102,1,-5
COCCNc1nnc(SCC(=O)c2cc(C)n(-c3ccc4c(c3)OCO4)c2C)s1,101,100,-28,0
O=C(NCCc1c[nH]c2ccccc12)c1ccc2c(=O)n3c(nc2c1)CCCCC3,100,104,-10,-1
O=C1NN=C2c3ccccc3CCC12 (configuration not stated),99,100,5,12
COc1ccc(-c2nc(C#N)c(N3CCCCC3)o2)cc1,101,96,-1,102
Cc1csc(=NC(C)C)n1/N=C/C(C)c1ccccc1 (configuration not stated),108,107,-38,2
COC1CCCC(C(=O)Nn2c(C3CC3)nc3ccccc3c2=O)C1 (configuration not stated),101,101,-36,3
CC(=O)Nc1ccc(-c2nc3cc(Cl)ccc3c(=O)o2)cc1,99,103,-7,0
CCc1nc2ccccc2n1CC(=O)Nc1ccccc1C#N,102,104,x,13
CC1(C)CC(=O)C2=C(C1)NC1=C(C2)C(=O)CC(C)(C)C1,97,96,-50,4
Cc1ncc(CO)c(/C=N/N=C2\CC3CCC2(C)C3(C)C)c1O (configuration not stated),102,108,-12,-2
O=c1cc(CSc2nnc(Nc3ccccc3)s2)nc2sccn12,56,167,-19,0
Nc1ccc2nc(SCC(=O)O)sc2c1,102,98,19,22
COc1cc(OC)cc(C(=O)Nc2nc3ccc4sc(C)nc4c3s2)c1,102,103,-3,16
O=C(Nc1ccccc1)C1CC2c3ccccc3C1c1ccccc12 (configuration not stated),106,103,-18,x
COC(=O)CC1=C(C(=O)OC)C2(C(=O)Nc3ccc(F)cc32)C(C#N)=C(N)O1 (configuration not stated),102,100,-20,-11

Following part:
mol,Polio RdRp inh,Polio RdRp inh intensity,Mtb MenB inh,MbtI inh
COc1ccc(-c2nc3ccccc3n2C)cc1OC,103,100,-25,88
FC(F)C(F)(F)COC1OCCOC1OCC(F)(F)C(F)F (configuration not stated),105,100,-12,-1
O=C(N/N=C\c1ccc(F)cc1)C(c1ccccc1)N1CCOCC1 (configuration not stated),100,101,-14,9
Cc1c(C(=O)N(C)C)sc2c1c(=O)n(Cc1ccccc1)c(=O)n2Cc1ccccc1C#N,104,107,-11,6
CCC1(C)CC2(CCCN(CCO)C2)CCO1 (configuration not stated),101,103,4,7
COc1ccc2oc(=O)c(C(=O)NC3CCCC3)cc2c1,104,106,-14,x
Cc1cc(C(=O)OCc2ccc(Br)cc2)c(C)o1,105,106,-17,-12

Limited to Polio RdRp inh intensity and MbtI inh (five entries from above):
compound	Polio RdRp inh intensity	MbtI inh
Cc1c(C(=O)N(C)C)sc2c1c(=O)n(Cc1ccccc1)c(=O)n2Cc1ccccc1C#N	107	6
COc1ccc2oc(=O)c(C(=O)NC3CCCC3)cc2c1	106	x
COc1ccc(-c2nc3ccccc3n2C)cc1OC	100	88
FC(F)C(F)(F)COC1OCCOC1OCC(F)(F)C(F)F (configuration not stated)	100	-1
CCC1(C)CC2(CCCN(CCO)C2)CCO1 (configuration not stated)	103	7

Compound activity deposited in PubChem by ICCB-Longwood Screening Facility, Harvard Medical School.
